Compound activity as filed in PubChem.
BJeLR viability: MLPCN primary cell-based screen for lethality selective to Ras in HRASV12 cells | BJeLR (HRASV12) viability, CellTiter-Glo ATP luminescence, 48 h; reference of the scale not given here | inhibition, % (test concentration not listed) | hit rate 0.17% among 300,000;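 active = replicate mean above 50%; inconclusive = above 50% but judged a plate artefact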;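 also: 50 nL library stock added to about 25 µL; numbers are from one replicate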
Bead autofluor: flagged as autofluorescent in microsphere protease counterscreen | compound autofluorescence counterscreen, microsphere flow cytometry; stronger effect = higher value | fluorescence intensity (no concentration beside the values) | hit rate 3.1% among 360,000;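 active = at least 3 SD above the mean of all compounds, about 16000 in these data; inconclusive = too few beads counted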;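 also: 100 nL of 1 mM stock went into each well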
Mtb hypoxia rep: PubChem AID 1159583. M. tuberculosis hypoxia-regulated fluorescent reporter, fluorescence. hit rate 0.1% among 300,000. fluorescence inhibition, % (no concentration beside the values);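 active = 35 to 45% if threefold the growth effect, above 45% if 1.5-fold the growth effect; inactive = the rest, general growth blockers included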;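 also: wells of about 50 µL received 100 nL stock; 0% = vehicle wells and 100% = reference inhibitor wells; whole bacteria with a GFP reporter of the hypoxia response; strong numbers were not always called active; many hits fall short of the cut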
Sa ugtP lethal: growth inhibition of ugtP-null S. aureus, primary screen, RN4220 ugtP deletion, OD600; 16 h; some inactives read as strong as hits; hit rate 0.54% among 330,000; growth inhibition, % (concentration not given with the values);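 active = z-score under -3 and OD600 up to 0.15 on both plates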;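 also: plate controls were untreated wells for no effect and antibiotic for full effect; wells of about 80 µL received 100 nL stock; the first replicate is given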
PrP UTR inh: inhibition of PrP 5' UTR reporter expression; cell-based PrP 5' UTR mRNA reporter, plate reader; inhibition, % (test concentration not listed); hit rate 0.35% among 340,000;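 active = every replicate at 50% or more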;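 also: 0 = median of the neutral control wells; tested in H4 reporter cells; numbers are from one replicate; inactives centre near -14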
RN4220 kill: growth inhibition of S. aureus RN4220, primary screen, OD600. 16 h. inhibition, % (concentration not given with the values). hit rate 0.33% among 330,000;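 active = z-score of -3 or lower and OD600 up to 0.18 on both plates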;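 also: plate controls were untreated cells for no effect and reference antibiotic for full effect; stock transfer was 100 nL into about 80 µL; one replicate is shown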
Mtb hypoxia rep growth: also measured in Mtb hypoxia rep; calls as there; growth inhibition, %; measured here: M. tuberculosis growth (absorbance);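 0% = vehicle and 100% = reference antibiotic; read after six days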
Numbers without * were called inactive; ? = inconclusive; . = not tested or not shown.

SMILES	BJeLR viability	Bead autofluor	Mtb hypoxia rep	Mtb hypoxia rep growth	Sa ugtP lethal	PrP UTR inh	RN4220 kill
Cc1cc(C)c(NC(=O)COC(=O)CCc2ccc(S(=O)(=O)N3CCCCC3)cc2)c(C)c1	-9	2544	-3	-2	-2	4	1.1
Cn1cc(C(=O)NCCN2CCN(c3cccc(Cl)c3)CC2)c2c3ccccc3n(C)c2c1=O	-11	23347*	-3	4	1	-11	-4.6
CN(C)S(=O)(=O)c1cc(NC(=O)CNCCN2CCOCC2)ccc1Cl	17	3723	-1	-2	6	-18	3.1
CC(C)COc1ccc(CN=C(N)N=C(N)N)cc1Cl	8	2594	-4	-6	7	-12	-3.6
COc1ccc(CCNC(=S)N2CCC(C(=O)c3ccc(F)cc3)CC2)cc1OC	5	5077	15	3	3	-55	9.4
C=CCn1c(N)c(C(=O)OCC(C)C)c2nc3ccccc3nc21	1	4092	0	9	-2	-10	3.6
O=c1c2ccccc2cnn1Cc1cccc(Br)c1	-14	3689	11	2	3	-6	3.9
CC(C)(C)CC(=O)Nc1nnc(SCC(=O)NC2CCCCC2)s1	5	4414	9	4	13	-3	2.5
Cc1c(Cl)cccc1N(CC(=O)NC(C)c1ccccc1)S(C)(=O)=O (centres undefined)	2	?	16	11	6	-22	3.7
O=C(CC1(O)C(=O)Nc2ccccc21)c1ccc(-n2cccc2)cc1 (centres undefined)	-1	3647	.	.	-1	-11	22
[N-]=[N+]=NCc1cn2cccnc2n1	-2	2056	3	1	9	-9	4.0
Cc1cccc(N2CCN(C(=O)c3oc4ccc(Br)cc4c3C)CC2)c1C	.	3695	-3	7	7	-5	-2.7

Continued (two carried over from the part before).
SMILES	BJeLR viability	Bead autofluor	Mtb hypoxia rep	Mtb hypoxia rep growth	Sa ugtP lethal	PrP UTR inh	RN4220 kill
[N-]=[N+]=NCc1cn2cccnc2n1	-2	2056	3	1	9	-9	4.0
Cc1cccc(N2CCN(C(=O)c3oc4ccc(Br)cc4c3C)CC2)c1C	.	3695	-3	7	7	-5	-2.7
O=C(CNC(=O)c1ccncc1)NN=Cc1ccccn1	.	.	-7	6	3	.	2.8
Cc1ccc(C)c(N2CCN(C(=O)C3CCCCN3S(=O)(=O)c3ccc(F)cc3)CC2)c1 (centres undefined)	3	6166	10	10	-1	-7	4.7
COc1ccc(-c2nnc(N(C)C(=O)c3ccco3)s2)cc1OC	7	2787	-2	0	3	-21	4.9
Cc1c(Br)c([N+](=O)[O-])nn1CC(=O)Nc1ccc(CC#N)cc1	3	.	13	8	25	.	6.1
COc1ccc(NC(=O)CCN2C(=O)c3ccncc3C2=O)cc1OC	10	6398	7	6	7	-13	2.6
COc1ccc(/C=C(/CC(=O)Nc2ccc(C)cc2)c2nc3ccccc3s2)cc1	23	7650	11	2	-1	-37	2.2
COC(=O)c1ccc(SC2CCCCC2)c([N+](=O)[O-])c1	2	9360	7	8	-6	-21	11
CCCn1c(N)c(C(=O)CSc2nc(N)cc(=O)[nH]2)c(=O)n(C)c1=O	.	4929	3	3	0	-17	0.8
CCOC(=O)C1CCN(C(=O)CSc2ccc(Br)cc2)CC1	-1	4254	1	4	15	-15	1.9
O=S(=O)(c1ccc(Cl)cc1)N1CCCCCC1	5	.	-1	-2	5	-18	3.7
Fc1cccc(Cl)c1Cn1nnc2c(NCc3ccncc3)ncnc21	2	4705	2	14	2	-11	4.2
O=P(Nc1ccccc1)(Nc1ccccc1)Oc1ccccc1	0	2072	-4	5	1	-12	13
CCOC(=O)Cc1ncccc1C(=O)Nc1ccc(OC(F)(F)F)cc1	1	4181	6	1	1	-4	-0.8
O=C(Cn1nnc(-c2ccc(N3CCOCC3)cc2)n1)N1CCOCC1	16	.	9	-3	3	.	5.0
COc1cc2ncc(S(=O)(=O)c3ccccc3)c(N3CCC4(CC3)OCCO4)c2cc1OC	3	2266	1	2	0	-20	1.6
COc1cc(C)c(NC(=S)Nc2cccc(Cl)c2C)cc1OC	-2	2064	-3	-2	0	-9	5.4
Cn1ncc(Br)c1C(=O)N1CCCCCC1	-10	5591	.	.	.	-15	.
CCOc1ccc(C2C(C(N)=O)=C(C)Nc3ncnn32)cc1OC (centres undefined)	-3	3082	2	3	4	-17	2.5
Cc1cccc(Oc2nc(-c3ccccc3)cc(C)c2S(C)(=O)=O)c1C	-8	2746	.	.	29	-20	1.5
COc1cc(C(C)=NNC(=O)c2cccc(S(=O)(=O)N3CCCC3)c2)cc(OC)c1OC	.	.	-8	9	0	.	1.0
COc1cccc(NS(=O)(=O)c2ccc3c(c2)n(C)c(=O)c(=O)n3C)c1	2	9512	7	4	10	-27	6.7
O=C(COC(=O)Cc1ccccc1)Nc1ncc(Cl)cc1Cl	-3	3757	.	.	12	-18	-0.1
COc1ccc(CN2CCc3c([nH]c4ccccc34)C2)c(OC)c1C	-2	.	6	-5	10	-2	3.5
O=C(Nc1cccnc1)c1cc(S(=O)(=O)N2CCOCC2)ccc1Br	3	.	-2	-4	6	-17	-1.8

2 entries from above in another layout:
compound: CCOC(=O)Cc1ncccc1C(=O)Nc1ccc(OC(F)(F)F)cc1
  BJeLR viability = 1; Bead autofluor = 4181; Mtb hypoxia rep = 6; Mtb hypoxia rep growth = 1; Sa ugtP lethal = 1; PrP UTR inh = -4; RN4220 kill = -0.8

compound: CCOc1ccc(C2C(C(N)=O)=C(C)Nc3ncnn32)cc1OC (centres undefined)
  BJeLR viability = -3; Bead autofluor = 3082; Mtb hypoxia rep = 2; Mtb hypoxia rep growth = 3; Sa ugtP lethal = 4; PrP UTR inh = -17; RN4220 kill = 2.5

New compounds follow
SMILES	BJeLR viability	Bead autofluor	Mtb hypoxia rep	Mtb hypoxia rep growth	Sa ugtP lethal	PrP UTR inh	RN4220 kill
Cc1cccc(Nc2nc(-c3ccccn3)cs2)n1	-1	10704	8	26	-25	.	28
OCCC1CN(Cc2cc3c(cc2Cl)OCO3)CCN1C1CCCCC1 (centres undefined)	1	2341	0	4	7	2	1.2
CN(C)C(=O)c1ccc(NC(=O)COC(=O)C2(c3ccccc3)CCCC2)cc1	.	2869	4	1	-1	9	4.7
O=C(CC1S/C(=N/N=C/c2cccs2)NC1=O)Nc1ccc(Cl)cc1 (centres undefined)	-10	8844	.	.	.	-15	.
C=CCn1c(SCC(=O)NCC)nnc1-c1cc2c(s1)CCC(CC)C2 (centres undefined)	-10	8260	-1	8	6	-32	4.5
COc1ccc2ccccc2c1C=NNC(=O)c1nnn(-c2nonc2N)c1C(C)C	.	.	-15	4	-23	.	2.6
COC(=O)C1=C(N)N(c2ccc(F)cc2)C2=C(C(=O)CCC2)C1c1ccc2c(c1)OCO2 (centres undefined)	3	3824	.	.	-4	9	-2.0
N/C(=N\OC(=O)COc1ccc2ccccc2c1Br)c1ccccn1	5	4100	-2	1	-8	-31	-0.7
NNC(=O)COc1cccc(C(F)(F)F)c1	7	4299	-8	13	-13	9	-2.7
FC(F)(F)c1nc(=S)c2ccccc2[nH]1	.	4365	1	-4	24	-5	16
Cc1cc(/C=C(\C#N)C(=O)OCC(=O)NC(=O)NC(C)(C)C)c(C)n1CCC(C)C	-10	2857	.	.	-2	-25	-4.3
COc1ccc(-c2c(C)oc3c(CN4CCOCC4)c(O)ccc3c2=O)cc1OC	-11	2928	-5	-1	-1	-9	1.9
CCOC(=O)c1c(NC(=O)CSc2nnc(Cc3csc(N)n3)n2C)sc(C)c1C	-16	6135	5	7	1	-18	-1.5
Cc1cccc(N2CCN(C(=O)C3CCCN(S(=O)(=O)c4c(C)noc4C)C3)CC2)c1C (centres undefined)	3	5854	-1	8	-8	-5	-4.6
CC1=C(C(=O)OCCCCCl)C(c2cc3c(cc2Br)OCO3)NC(=O)N1 (centres undefined)	-3	3875	.	.	.	13	.
COc1ccc(OC)c(S(=O)(=O)Nc2cc3c(cc2N2CCCC2)n(C)c(=O)c(=O)n3C)c1	9	5223	9	6	9	-9	3.1
CCOc1ccc(C(C(=O)NC2CCCC2)N(CCCO)C(=O)c2ccc(-c3ccccc3)[nH]2)cc1 (centres undefined)	-8	4409	13	10	-1	-29	1.7
Cc1ccc2nc(NC(=O)COC(=O)c3ccncc3)sc2c1	5	4064	-5	9	3	-50	9.1
CC1CCC2(CC1)NC(=O)N(CC(=O)NC(=O)Nc1ccc3c(c1)OCCO3)C2=O (centres undefined)	1	5947	-4	4	17	-2	1.0
O=C(COC(=O)c1cc2ccccc2o1)c1ccccc1	-4	5780	.	.	-5	0	0.3
COc1cc(-c2onc3ccc(Br)cc23)cc(OC)c1OC	-9	4681	3	3	0	-44	2.6
CCC(C(=O)OCC(=O)NC(=O)c1ccccc1OC)c1ccccc1 (centres undefined)	-5	?	8	10	8	-6	6.7
CCCn1c(C)cc(=O)c2cc(NC(=O)c3cnccn3)ccc21	7	3389	.	.	10	-22	-1.3
CNc1cc(N2CCNCC2)ccc1[N+](=O)[O-]	6	2150	13	10	2	-45	0.5
COC(=O)[C@@H](NC(=O)N1CCC(Cc2ccccc2)CC1)C(C)C	3	3979	6	-1	10	-23	3.7
Cc1ccc(S(=O)(=O)N2CCN(C(=O)CCC(=O)N3CCc4ccccc43)CC2)cc1	-3	3265	4	11	3	-21	2.8
O=C(CSCc1c(F)cccc1F)Nc1ccccc1	0	4369	-11	-3	-4	-44	-3.6
O=C(CCN1C(=O)/C(=C/c2ccccc2)SC1=S)N[C@@H](CO)Cc1ccccc1	-1	5607	5	3	1	-16	-0.2
Cc1c(C=O)c2ccccc2n1Cc1ccc(F)cc1	4	4520	4	12	0	-7	-0.6
CN(C)/C=C/C1=CC(=O)CC(C)(C)C1	0	3832	-2	3	3	-10	1.6
CSCCC(NC(=O)CCN1C(=O)c2ccccc2C1=O)C(=O)O (centres undefined)	1	9688	-1	-1	-10	-32	3.8
CC1(C)CC(=O)C=C(c2ccc(-c3ccccc3)cc2)C1	.	3938	13	7	-1	-50	-0.1
CSC1=NC2(CC(c3ccccc3)Oc3cc(O)ccc32)CC(C)(C)N1 (centres undefined)	0	4908	.	.	-8	0	0.2
COc1cccc(-c2ccc(C#N)c(OC(=O)c3c(Cl)cccc3Cl)n2)c1	-4	2829	13	7	18	-11	3.7
O=C(NCCOc1ccccc1)[C@@H]1CCCN1C(=O)c1cccs1	.	3629	0	-8	-1	-5	1.6
Cc1cc(C(=O)CSc2nnc(-c3ccccc3)n2-c2ccccc2)c(C)n1-c1ncn[nH]1	0	6417	7	1	6	4	3.8
O=C(N/N=C/c1ccc(Br)cc1)c1ccccc1-n1cccc1	-5	11164	.	.	.	-15	.
COc1ccc(C=NNC(=O)c2cccc(NC(=O)c3ccc(Cl)cc3)c2)c(OC)c1	.	.	4	2	2	.	0.9
COc1cccc(N2CCN(C(=O)c3ccccc3SCC(=O)NCc3ccco3)CC2)c1	.	8727	6	18	12	6	-6.9
Cc1ccccc1C(=O)OCC(=O)N(C)c1c(N)n(Cc2ccccc2)c(=O)[nH]c1=O	-6	5446	7	6	1	-7	0.0
Cn1cccc1C(=O)OCC(=O)N1CCN(c2ccccc2)CC1	.	3865	7	11	5	-25	4.6
CC1Sc2ccc(S(=O)(=O)CCC(=O)NC3CCCCCC3)cc2NC1=O (centres undefined)	2	4714	2	-2	9	3	8.6
CCOC(=O)CSc1nc2sc3c(c2c(=O)n1-c1ccc(OCC)cc1)CCN(C)C3	3	3704	14	9	10	-11	0.3
CCn1c(SCC#N)nc2ccccc2c1=O	7	4584	10	2	-2	-2	3.5
CCOc1ccc(NC(=O)CC(NC(C)=O)c2ccccc2)cc1S(=O)(=O)N1CCCC1 (centres undefined)	.	2713	10	-3	2	-19	0.2
C/C(CC(=O)Nc1ccc(Cl)cc1Cl)=N\NC(=O)c1ccncc1	7	6179	.	.	.	-19	.
CC(=O)c1cccc(NC(=O)COc2ccc(S(=O)(=O)N3CCOCC3)cc2)c1	-3	5739	6	6	-4	-10	1.8
O=C1Nc2cc(Cl)c(Cl)cc2N(O)N1c1cccc(Cl)c1	0	8180	4	-6	-6	4	1.7
O=C(O)c1ccc2c(c1)C(=O)N(c1cc([N+](=O)[O-])ccn1)C2=O	-10	3810	-13	4	3	-9	1.8
Cn1ccnc1SCCNC(=O)C1CCC(=O)N(Cc2ccc(Cl)cc2)C1 (centres undefined)	1	4648	2	-11	0	-11	1.6
